HCMV NEC inh: inhibitors of HCMV UL50-UL53 nuclear egress complex interaction; AID 1918969; HTRF UL50-UL53 interaction, normalized percent inhibition; hit rate 0.15% among 190,000; inhibition, % (test concentration not listed);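 active means both replicates at 50% or more, plus weaker picks with an unusually low signal ratio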;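 further: stock transfer was 100 nL into about 20 µL; 0% = negative control wells and 100% = wells with untagged competitor protein; inactives centre near -12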
Numbers without * were called inactive; & = joins results of further samples. The list is partial; the hit share may differ from the screen's.

compound	HCMV NEC inh
CCOC(=O)[C@H]1O[C@@H]1C(=O)N[C@@H](CC(C)C)C(=O)NCCC(C)C	5
Cc1ccc(-c2ccc3ccccc3n2)o1	-54
C=CCSC1=C(C#N)C(c2ccccc2)C(C(=O)OC)C(=O)N1 (stereo not drawn)	12
CCCCC/C=C\C/C=C\CCCCCCCCCC(=O)O	-13&-13&-15
Nc1nc(-c2cc3cc(Br)ccc3oc2=O)cs1	-27
Cc1cc(C)c(S(=O)(=O)Nc2cccnc2)c(C)c1	-4
CN1CC(=O)N/C1=N/C(=O)Nc1cccc(Cl)c1	-4
O=C(c1cccnc1)N1CCOCC1	-25
CCC(=O)Nc1nc(-c2ccc(C)cc2C)cs1	10
COc1ccc(N)cc1C#N	-24
Cc1ccc(NC(=S)SCCC(N)=O)cc1	-19
Fc1cc(F)c2c(c1)sc1nnc(-c3ccccc3)n12	-3
Cc1cc(NC(=O)CSc2nc3ccccc3s2)no1	-1
COc1ccc(C(=O)n2c(SC)nc3ccccc32)cc1OC	-6
O=C(NS(=O)(=O)c1ccc(Br)cc1)c1ccccc1O	-9

Quoted at random: three entries already listed, in no set order.
compound	HCMV NEC inh
Cc1cc(NC(=O)CSc2nc3ccccc3s2)no1	-1
O=C(c1cccnc1)N1CCOCC1	-25
Nc1nc(-c2cc3cc(Br)ccc3oc2=O)cs1	-27

Next section:
compound	HCMV NEC inh
CCCNC(=O)Nc1ccc(N2CCC(C(F)(F)F)CC2)nc1	-10
CCOC(=O)CSc1nnc(NC(=O)c2ccccc2)s1	-8
COc1ccc(OC)c(S(=O)(=O)NC2CCCCC2)c1	-15
CN(C)/C=C/C(=O)C12CC3CC(CC(C3)C1)C2	20
CCC(C)(C)C1CCc2sc3nc[nH]c(=O)c3c2C1 (stereo not drawn)	-1
COc1ccc(F)cc1-c1cnn(CC(=O)Nc2cc(C)nn2C)c1	-1
Cc1nc2sccn2c(=O)c1CCN1CCC(=C(c2ccccc2)c2ccc(F)cc2)CC1	0
COc1cc2c(cc1OC)CN(CCc1ccc(NC(=O)c3cc(OC)c(OC)cc3NC(=O)c3cnc4ccccc4c3)cc1)CC2	6
CN(C)C(=O)c1cccnc1-c1ccc2ncccc2c1	-20
O=C(NCc1ccc(Cl)c(Cl)c1)O[C@H]1CCc2ccccc21	20&20
CCSc1nc(C2CC2)cc(-c2ccco2)c1C#N	-5
CC(C)NCC(O)COc1ccc(Br)cc1 (stereo not drawn)	-3
NS(=O)(=O)c1ccc2nc(NC(=O)c3ccc4c(c3)CCCC4)sc2c1	7
C=C1CC[C@H](O)C/C1=C/C=C1\CCC[C@]2(C)[C@@H]([C@H](C)CC[C@@H](O)C(C)(C)O)CC[C@@H]12	-16
CCC(C)Sc1nc2c(c(=O)n1-c1ccc(Cl)cc1)SCC2 (stereo not drawn)	0
O=C(NCCCc1nc2ccccc2[nH]1)c1ccccc1	-11
COc1cccc(OCC(O)CNC(C)c2ccccc2)c1 (stereo not drawn)	1
CCCCC[C@@H](O)/C=C/[C@H]1C(=O)C[C@H](O)[C@@H]1C/C=C\CCCC(=O)O	-5&-5
CCS(=O)(=O)N1CCN=C1SCc1cccc2ccccc12	-12
N#Cc1c(-c2ccccc2)nc(-c2ccccc2)[nH]c1=O	-11
O=C(CSCc1ccccc1)N1CCN(c2ccccc2)CC1	5&0
CC(=O)N1CCN(c2nc3ccc(Cl)cc3s2)CC1	-7
CCCCC/C=C\C\C=C/C=C/C=C/[C@@H](SC[C@H](N)C(=O)NCC(=O)O)[C@@H](O)CCCC(=O)O	-12
COCCn1c(=NC(C)=O)sc2ccccc21	-11
CCCSc1nnc(NC(=O)C23CC4CC(CC(C4)C2)C3)s1	-13
O=C1C=CC(=O)C2=C1C1c3ccccc3C2c2ccccc21	-4
Cn1c(CCNC(=O)Cc2ccccc2)nc2ccccc21	-8
CCOC(=O)c1sc2nc(C3CC3)cc(-c3ccc(OC)cc3)c2c1N	-10
NC(=O)CSc1cn(Cc2ccccc2)c2ccccc12	-14
COc1ccc(S(=O)(=O)N2Cc3ccccc3CC2C(=O)NC(C)(C)C)cc1 (stereo not drawn)	3
O=C(C=Cc1ccc(O)c(O)c1)OC1C[C@@](O)(C(=O)O)CC(O)C1O (stereo partly drawn)	-50
CC(C)C(C(=O)Nc1ccc(C(=O)NO)cc1)c1ccccc1 (stereo not drawn)	-8
Cc1cc(C)c(Cn2nc(C(C)(C)C)cc2C(=O)NN2CCOCC2)c(C)c1	-11
CC(C)n1cnc2c(Nc3ccc(F)c(Cl)c3)nc(NCCO)nc21	-12
CCOC(=O)c1ccc(N2CCN(CC(C)C)C(=O)C2C)nc1 (stereo not drawn)	-24
c1cc(-c2ccc3c(c2)OCO3)[nH]n1	-4
CC1CCN(C(c2ccccc2)c2ccc3cccnc3c2O)CC1 (stereo not drawn)	-16
CCN(CC)CC(O)COc1ccc(OC)cc1 (stereo not drawn)	-13
CCC(=O)Nc1ccc(C)cc1C	-12
O=C(Nc1ccncc1)c1ccc(F)cc1	-2
O=C(NCCCCN1CCN(c2cccc(Cl)c2Cl)CC1)c1ccc2c(c1)Cc1ccccc1-2	-1
S=C(NCC1CCCO1)SCc1cn2ccccc2n1 (stereo not drawn)	-8
C=C1C2(C(=O)N3CCCC(C(=O)N4CCOCC4)C3)CCC(C2)C1(C)C (stereo not drawn)	2
CCN(CCc1ccccn1)C(=O)c1cc(-c2cnc(N)nc2)nc2c(C)cccc12	-24&-24
O=C(N/C(=C/c1ccccc1)S(=O)(=O)c1ccc(Cl)cc1)c1ccccc1	-15
Cc1nc2scc(-c3cccs3)c2c(=O)n1-n1cccc1	-2&-9
Cn1cc(CN2CC(OCc3cccnc3)CN(Cc3cn[nH]c3-c3ccccc3)CC2=O)cn1 (stereo not drawn)	-12
CCCCC(CC)CN1CCc2[nH]nc(C3CC3)c2C1 (stereo not drawn)	3
Cc1[nH]c2ccccc2c1SCC(N)=O	-4
COc1cc(NC(=O)c2ccnnc2)cc(C(=O)Nc2cccc(C(F)(F)F)c2)c1	-14
CC(NC(=O)c1c(F)cccc1F)C(c1cccs1)N1CCN(C)CC1 (stereo not drawn)	-10
CCOc1ccc(N2C(=O)C3C4C=CC(C4)C3C2=O)cc1 (stereo not drawn)	8
CCn1c(=NC(=O)c2ccc(Br)s2)sc2ccccc21	-10
CCc1ccc(NC(=O)CC(NCC2CCCO2)C(=O)O)cc1 (stereo not drawn)	-3
CC1=C(C(=O)N2CCOCC2)C(c2ccc(N(C)C)cc2)C2=C(CC(C)(C)CC2=O)N1 (stereo not drawn)	-6
Cn1nccc1-c1cc(C(=O)NCc2ccc(S(C)(=O)=O)cn2)c(=O)n(-c2cccc(C(F)(F)F)c2)c1	-3
N=c1oc2ccccc2cc1-c1nc2ccccc2c(=O)[nH]1	-34
CCS(=O)(=O)NCc1ccc2c(c1)cc(C)n2C	11
Cc1ccc(/C=C/C(=O)N(C)Cc2ccccc2)o1	-22
Cc1ccc(C(O)C(C)(C)C(=O)O)cc1 (stereo not drawn)	-15

SMILES: COc1cc2ncnc(Nc3ccc(Oc4ccccc4)cc3)c2cc1OC
- HCMV NEC inh: -14&2
SMILES: Cc1nc(S(=O)(=O)c2ccc(Cl)cc2)c(N2CCOCC2)o1
- HCMV NEC inh: -5
SMILES: Cc1ccc(Sc2ccccc2N2CCNCC2)c(C)c1
- HCMV NEC inh: -4
SMILES: Cc1[nH]c2ccccc2c1SCCNC(=O)c1cc2ccccc2oc1=O
- HCMV NEC inh: -20
SMILES: COC(=O)C1C(=O)NC(SC)=C(C#N)C1c1ccccc1Cl (stereo not drawn)
- HCMV NEC inh: -22
SMILES: O=S(=O)(/C=C/c1ccccc1)n1cnc2ccccc21
- HCMV NEC inh: -7
SMILES: CC(=O)OCC(=O)[C@@]1(O)CC[C@H]2[C@@H]3CCC4=CC(=O)C=C[C@]4(C)[C@H]3[C@@H](O)C[C@@]21C
- HCMV NEC inh: -23
SMILES: CCCCC/C=C\CCCC/C=C\C/C=C\CCCC(=O)O
- HCMV NEC inh: -19&-19
SMILES: COc1ccc(-n2nc3c(c2NC(=O)c2cccc(F)c2)CS(=O)C3)cc1 (stereo not drawn)
- HCMV NEC inh: -2
SMILES: O=C(CSc1nnc(Cc2ccccc2)o1)N1CCCC1
- HCMV NEC inh: 18

SMILES: COc1ccc(N=Cc2ccc(-c3ccc(F)cc3)o2)cc1
- HCMV NEC inh: -30
SMILES: COc1ccc(C(=O)NCc2nnc(SC(C)C)n2Cc2ccccc2)cc1
- HCMV NEC inh: -5
SMILES: COc1ccc(-c2cc(=O)c3c(O)cc(O)cc3o2)cc1O
- HCMV NEC inh: -12
SMILES: COc1ccc(C(=O)Nc2sc3c(c2C(N)=O)CC(C)CC3)cc1OC (stereo not drawn)
- HCMV NEC inh: -6
SMILES: Nc1cccc2c1C(=O)N(C1CCC(=O)NC1=O)C2=O (stereo not drawn)
- HCMV NEC inh: -73
SMILES: CC1CC(OCC(O)CN2CCN(c3cccc(C(F)(F)F)c3)CC2)CC(C)(C)C1 (stereo not drawn)
- HCMV NEC inh: 0
SMILES: COc1ccc(-c2[nH]c3ccccc3c2SCCNC(C)=O)cc1
- HCMV NEC inh: -13
SMILES: Cc1nc(SCCO)c2c3c(sc2n1)CCC3
- HCMV NEC inh: -2
SMILES: FC(F)(F)COc1ccc(-c2nnc(SCc3ccccc3C(F)(F)F)o2)cn1
- HCMV NEC inh: -5
SMILES: CCCCC[C@H](O)/C=C/[C@@H]1[C@@H](CCCCCCC(=O)O)[C@@H](O)C[C@H]1O
- HCMV NEC inh: -17&-17&-15

SMILES: CNC(=O)c1cc2ccccc2oc1=O
- HCMV NEC inh: -25
SMILES: C[C@@]12C(=O)OC(=O)[C@]1(C)[C@H]1CC[C@@H]2O1
- HCMV NEC inh: -8&-31
SMILES: O=c1cc(-c2ccccc2Cl)nc(-c2ccc(CN3CC[C@H](O)C3)cc2)[nH]1
- HCMV NEC inh: 0
SMILES: CCCC(=O)Nc1nc2ccc(S(=O)(=O)N(C)C)cc2s1
- HCMV NEC inh: -2
SMILES: CCCCC[C@H](O)/C=C/[C@H]1[C@H](O)CC(=O)[C@@H]1CCCCCCC(=O)NCCO
- HCMV NEC inh: -3&-3
SMILES: Cc1ccc(N=C2NC(=O)/C(=C3\C(=O)N(C)c4ccccc43)S2)cc1C
- HCMV NEC inh: -18
SMILES: COC(=O)CCC(=O)Nc1nc(-c2ccccc2)cs1
- HCMV NEC inh: -7
SMILES: O=C(COc1cccc2c1CCN(Cc1ccccc1)C2=O)N1CCCCC1
- HCMV NEC inh: -18
SMILES: N#Cc1c(N)nc(SC2CCCCC2=O)c(C#N)c1-c1ccc(O)cc1 (stereo not drawn)
- HCMV NEC inh: -3
SMILES: COC(=O)c1ccc(OCC(O)CN2CC(C)CC(C)C2)cc1 (stereo not drawn)
- HCMV NEC inh: 3

Looked up above:
O=c1cc(-c2ccccc2Cl)nc(-c2ccc(CN3CC[C@H](O)C3)cc2)[nH]1 – HCMV NEC inh: 0
CNC(=O)c1cc2ccccc2oc1=O – HCMV NEC inh: -25
COC(=O)CCC(=O)Nc1nc(-c2ccccc2)cs1 – HCMV NEC inh: -7
C[C@@]12C(=O)OC(=O)[C@]1(C)[C@H]1CC[C@@H]2O1 – HCMV NEC inh: -8&-31
CCCC(=O)Nc1nc2ccc(S(=O)(=O)N(C)C)cc2s1 – HCMV NEC inh: -2

(more compounds)
SMILES: CC(C)c1noc(N2CCC(COc3ccc(-c4ccc(S(C)(=O)=O)cc4)nc3)CC2)n1
- HCMV NEC inh: 0
SMILES: CS(=O)(=O)N1CCN=C1SCc1cccc2ccccc12
- HCMV NEC inh: -6
SMILES: O=C(COc1ccccc1)OCc1nc2ccccc2s1
- HCMV NEC inh: -8
SMILES: NS(=O)(=O)c1ccc(NC(=O)c2ccc(-c3ccccc3Cl)o2)cc1
- HCMV NEC inh: -13
SMILES: COc1ccccc1-c1noc(CN2CCOC2=O)n1
- HCMV NEC inh: -9
SMILES: COC(=O)CSc1nnc(-c2c[nH]c3ccccc23)n1-c1ccc(F)cc1
- HCMV NEC inh: -7
SMILES: O=C1CN(S(=O)(=O)c2ccccc2)CC(=O)N1CCc1ccccc1
- HCMV NEC inh: 2

Grouped by structure, the compounds so far with an NH in an aromatic ring
SMILES: CCC(C)(C)C1CCc2sc3nc[nH]c(=O)c3c2C1 (stereo not drawn)
- HCMV NEC inh: -1
SMILES: O=C(NCCCc1nc2ccccc2[nH]1)c1ccccc1
- HCMV NEC inh: -11
SMILES: N#Cc1c(-c2ccccc2)nc(-c2ccccc2)[nH]c1=O
- HCMV NEC inh: -11
SMILES: c1cc(-c2ccc3c(c2)OCO3)[nH]n1
- HCMV NEC inh: -4
SMILES: Cn1cc(CN2CC(OCc3cccnc3)CN(Cc3cn[nH]c3-c3ccccc3)CC2=O)cn1 (stereo not drawn)
- HCMV NEC inh: -12
SMILES: CCCCC(CC)CN1CCc2[nH]nc(C3CC3)c2C1 (stereo not drawn)
- HCMV NEC inh: 3
SMILES: Cc1[nH]c2ccccc2c1SCC(N)=O
- HCMV NEC inh: -4
SMILES: N=c1oc2ccccc2cc1-c1nc2ccccc2c(=O)[nH]1
- HCMV NEC inh: -34
SMILES: Cc1[nH]c2ccccc2c1SCCNC(=O)c1cc2ccccc2oc1=O
- HCMV NEC inh: -20
SMILES: COc1ccc(-c2[nH]c3ccccc3c2SCCNC(C)=O)cc1
- HCMV NEC inh: -13
SMILES: O=c1cc(-c2ccccc2Cl)nc(-c2ccc(CN3CC[C@H](O)C3)cc2)[nH]1
- HCMV NEC inh: 0
SMILES: COC(=O)CSc1nnc(-c2c[nH]c3ccccc23)n1-c1ccc(F)cc1
- HCMV NEC inh: -7
